From PubChem BioAssay
Ecoli rRNA inh: selective bacterial rRNA inhibition in E. coli; E. coli WT GFP vs humanized-ribosome RFP mutants, fluorescence, 24 h; stronger effect = lower value; DMSO median 0, no signal -100; GFP signal change (wild-type ribosome), % (test concentration not listed); hit rate 1.6% among 350,000; AID 720706;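 active = significant combined selectivity score with lowered wild-type GFP, culture density cut under 30%, mutant RFP and density less affected; inactive = any of these conditions unmet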; also: one replicate is shown; some compounds called inactive have numbers as strong as hits
Vif TR-FRET: inhibitors of Vif binding to APOBEC3G peptide, primary screen, biochemical, TR-FRET, GST-Vif 1-94, biotin-A3G peptide, dose response retest (AID 1117319); hit rate 0.57% among 260,000; TR-FRET GST-Vif / biotin-A3G peptide binding; higher % means a stronger effect; test concentration not given here; strong numbers were not always called active; inhibition, %, or IC50 in µM where a hit was titrated;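 active = above the screen mean plus three standard deviations and confirmed in dose response; inconclusive = results disagree or hit not tested in dose response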;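 also: Vif residues 1-94 fused to GST binding biotinylated APOBEC3G peptide 110-148; 0% = full assay without inhibitor and 100% = GST in place of GST-Vif; retest series ran down from 100 µM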
HNF4A DNA FP: change in binding of human HNF4 alpha to DNA. activity change, % at 10 µM. hit rate 0.3% among 360,000. AID 1224865. P41235. HNF4a-FITC DNA binding, fluorescence polarization, 1 h; in the data active = activity change above about 30%, passing the limit was not always enough;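 also: controls were the assay level and a saturating level of protein; the project sought stronger binding though the title names inhibitors; some compounds called inactive have numbers as strong as hits; positive values seem to mean higher polarization but the record does not say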
ALR H2O2 inh: human ALR oxidase inhibition via reduced H2O2. purified ALR, DTT oxidation, H2O2 HRP-luminol luminescence. inhibition, % (test concentration not listed). hit rate 3.8% among 290,000. AID 485317;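 active = mean and each replicate at 75% or more; inconclusive = only one of the two met; inactive = neither met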;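 also: stock transfer was 7.5 nL into about 7.5 µL; 0% = neutral wells and 100% = wells with inactivated enzyme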
Target sequence (P55789 whole entry, looked up): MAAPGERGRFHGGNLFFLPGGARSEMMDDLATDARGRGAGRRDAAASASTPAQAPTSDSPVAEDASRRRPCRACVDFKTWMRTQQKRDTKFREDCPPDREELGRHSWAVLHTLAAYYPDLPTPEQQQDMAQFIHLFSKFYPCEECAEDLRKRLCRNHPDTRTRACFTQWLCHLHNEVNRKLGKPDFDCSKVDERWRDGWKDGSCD
Ecoli growth: E. coli growth inhibition; Escherichia coli growth, OD600, 23 h; stronger effect = lower value; OD600 absorbance (no concentration beside the values); hit rate 0.21% among 330,000;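 active = OD600 absorbance below the run mean of sample wells minus 3.6 SD, in any replicate, cut at about 0.56 in these data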;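 also: stock transfer was 300 nL into about 60 µL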
FGF22 binding: FGF22 (human) thermal shift binding. recombinant FGF22 thermal shift, SYPRO orange fluorescence; percent of sucrose octasulfate shift, DMSO zero. calls only at 9.99 µM. hit rate 1.5% among 340,000;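 active = melting point raised past a set limit in the mean and every replicate; inconclusive = no clear call; three in four hits are not shown here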
Target sequence (Q9HCT0 whole entry, looked up): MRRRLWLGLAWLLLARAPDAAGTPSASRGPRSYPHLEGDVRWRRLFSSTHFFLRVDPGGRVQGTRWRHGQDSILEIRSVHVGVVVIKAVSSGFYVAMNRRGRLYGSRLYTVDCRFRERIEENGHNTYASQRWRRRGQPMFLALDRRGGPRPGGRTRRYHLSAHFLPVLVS
MLL AF4-AF9 inh: inhibitors of human MLL-AF4/AF9 interaction; AlphaScreen, biotin-AF4 peptide binding to FLAG-AF9; inhibition, % at 10 µM; hit rate 0.47% among 350,000;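 active = every replicate reaching a set inhibition limit, whatever the replicate mean, cut at about 25% in these data; inconclusive = mean inhibition reaches that limit but some replicates miss it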;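 also: 0% = plate neutral control median and 100% = total signal loss; the record names both 10 and 1 µM as test concentration; the first replicate is given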
Target sequence (P42568 whole entry, looked up): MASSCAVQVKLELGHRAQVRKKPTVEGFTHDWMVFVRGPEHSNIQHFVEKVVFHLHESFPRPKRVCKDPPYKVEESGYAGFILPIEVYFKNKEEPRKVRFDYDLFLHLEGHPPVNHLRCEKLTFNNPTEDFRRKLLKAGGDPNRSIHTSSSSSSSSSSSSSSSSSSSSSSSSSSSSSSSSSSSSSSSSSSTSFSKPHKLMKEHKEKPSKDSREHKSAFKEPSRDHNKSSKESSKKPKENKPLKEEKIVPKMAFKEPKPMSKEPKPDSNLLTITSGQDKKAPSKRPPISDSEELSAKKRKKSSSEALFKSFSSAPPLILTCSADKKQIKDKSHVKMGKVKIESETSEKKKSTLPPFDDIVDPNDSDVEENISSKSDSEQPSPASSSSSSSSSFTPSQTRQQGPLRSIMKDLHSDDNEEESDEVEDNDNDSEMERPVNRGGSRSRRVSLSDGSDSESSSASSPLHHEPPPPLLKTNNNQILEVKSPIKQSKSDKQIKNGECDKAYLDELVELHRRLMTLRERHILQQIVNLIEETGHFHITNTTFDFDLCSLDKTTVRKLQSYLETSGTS
Ecoli rRNA inh OD600: recorded beside Ecoli rRNA inh, whose call it bears; OD600 change, %; measured here: OD600 growth;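 optical density of the mix in the first replicate; 0 = DMSO median and -100 = no signal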
Ecoli rRNA inh RFP: second read-out of Ecoli rRNA inh, no call of its own (marks repeat the call); RFP signal change, %; measured here: RFP humanized mutant strains;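 first replicate; 0 = DMSO median and -100 = no signal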
Active calls of the source: *; i = inactive; ? = inconclusive; . = no result given; + = active, no number; & = joins results of further samples. This is a subset, so the mix of outcomes need not match the whole.

SMILES	Ecoli rRNA inh	Ecoli rRNA inh OD600	Ecoli rRNA inh RFP	Vif TR-FRET	HNF4A DNA FP	ALR H2O2 inh	Ecoli growth	FGF22 binding	MLL AF4-AF9 inh
CS(=O)(=O)N(CC(=O)N/N=C/c1ccccn1)c1ccc(Oc2ccccc2)cc1	-26*	-12*	-0.7*	0%	-2.7	-1	.	i	4.1
O=C1N=c2ccccc2=C1c1sc(=S)n(NC(=O)c2ccccc2)c1O	3	2	3.5	8%	-0.4	-7	.	i	.
CC(C)N1C(=O)CCC1C(=O)O (centres undefined)	6	13	0.8	?	-3.0	-4	0.69	i	1.7
CO[C@@H]1CN(C)C(=O)c2ccc(NC(=O)c3cc(C)on3)cc2OC[C@H](C)N(CC2CC2)C[C@@H]1C	7	12	0.1	.	.	.	.	i	1.0
COc1ccc(CN(C)C[C@@H]2Oc3ccc(NS(=O)(=O)c4ccccc4)cc3C(=O)N([C@@H](C)CO)C[C@@H]2C)cc1	8	9	2.0	.	.	.	.	i	-5.5
C[C@@H]1CN([C@H](C)CO)C(=O)c2cccc(N(C)C)c2O[C@H]1CN(C)C(=O)Nc1ccc2c(c1)OCO2	-2	-5	2.2	.	.	.	.	i	0.6
Cc1noc(C)c1NC(=O)Nc1ccc2c(c1)C(=O)N(C)[C@@H]1CC[C@H](CC(=O)NCc3ccc(Cl)cc3)O[C@H]1CO2	0	0	-1.1	.	.	.	.	i	-3.1
O=S(=O)(c1ccccc1F)N1CC[C@H]2[C@H](CO)Nc3ccc(-c4cccc(F)c4)cc3[C@H]21	-16	-52	14	.	.	.	.	i	0.1
C[C@H](CO)N1C[C@H](C)[C@@H](CN(C)Cc2ccc(-c3ccccc3)cc2)Oc2ncc(C#C[C@@H](C)O)cc2C1=O	0&0	2&-9	0.6&3.4	0%	3.0	.	.	i	4.3&6.1&1.8
CC(C)CCN1CCN(Cc2nc(-c3ccccc3)cs2)CC1CCO (centres undefined)	-3	-6	0.5	-2%	0.6	-8	0.66	i	0.5
N#CC(c1ccc([N+](=O)[O-])cc1)C(CC(=O)c1ccccc1)c1ccccc1 (centres undefined)	-3	0	2.4	-11%	-0.1	.	0.72	.	5.4
COC(=O)c1ccc(N2NC(=O)/C(=C/c3cc(OC)c(O)c(OC)c3)C2=O)cc1	11	18	10	5%	-0.9	73	0.7	i	3.7
COc1ccccc1NC(=O)N[C@H]1CC[C@H](CC(=O)N2CCC(Cc3ccccc3)CC2)O[C@@H]1CO	-7	-22	27	.	.	.	.	i	-0.8
C[C@@H]1CN([C@H](C)CO)C(=O)Cc2cc(NC(=O)Nc3ccc(C(F)(F)F)cc3)ccc2O[C@@H]1CN(C)Cc1ccc(C(=O)Nc2ccccc2N)cc1	-4	-5	0.0	.	.	.	.	i	-2.5
O=C(N/N=C/c1ccc(Cl)c([N+](=O)[O-])c1)c1cc(-c2ccc3c4c(cccc24)CC3)n[nH]1	3	6	0.3	-7%	-3.9	21	.	i	6.0
Cc1c(C(=O)OCC[N+]2(C)CCCCC2)oc2ccccc12	23	21	3.2	-3%	-2.3	0	0.65	i	-0.7
Cc1ccc(S(=O)(=O)NC(=O)C2(C)CCN2C(=O)c2cccc(F)c2)cc1 (centres undefined)	6	8	0.2	.	0.4	.	.	i	-4.0
CCOc1ccccc1CN1CCC(O)CC1	4	2	-1.4	2%	3.4	.	0.65	i	-1.3
CCCN=C1N(CC)C[C@@H]2[C@@H]3C(=O)N(Cc4ccccc4)C(=O)[C@@H]3[C@](C)(C(=O)OC)N12	14	12	-2.7	-3%	5.6	.	0.7	.	0.8
CC(=NCCc1c(C)[nH]c2ccc(C)cc12)C1=C(O)CC(c2ccccc2)CC1=O (centres undefined)	.	.	.	.	-3.8	17	0.69	.	.
COc1ccc(/C(=C\Nc2ccc(C)c(C)c2)C(C)=O)cc1OC	12	9	1.3	-3%	0.7	-19	0.66	i	7.5
CCOc1ccccc1N1CCN(C(=O)c2ccc(S(=O)(=O)Nc3ccccc3)cc2)CC1	-10	-18	12	1%	-0.8	.	0.65	i	0.6
CN(Cc1ccccc1)C(=O)c1ccc2c(c1)OCO2	.	.	.	5%	3.6	-4	0.71	.	.
CCC(=O)Nc1nonc1-c1nc2ccccc2n1CCC(C)C	0	-8	1.3	-4%	-0.9	1	0.7	.	.
COc1ccc(S(=O)(=O)Nc2ccc3c(c2)C(=O)N([C@@H](C)CO)C[C@@H](C)[C@@H](CN(C)Cc2ccc(-c4ccccc4)cc2)O3)cc1	1	-12	4.2	.	.	.	.	i	-0.9

Going on with the list.
SMILES	Ecoli rRNA inh	Ecoli rRNA inh OD600	Ecoli rRNA inh RFP	Vif TR-FRET	HNF4A DNA FP	ALR H2O2 inh	Ecoli growth	FGF22 binding	MLL AF4-AF9 inh
COc1ccccc1-c1cccc(-c2nc(C(=O)N3CCCCC3)cc3c2[C@H](CCO)N(S(=O)C(C)(C)C)C3)c1 (some centres undefined)	-8	-8	7.3	.	-0.5	.	.	i	0.0
Cc1ccccc1N1CC(C(=O)N2CC(C)CC(C)C2)CC1=O (centres undefined)	12	6	0.6	3%	-1.9	-9	0.71	i	0.3
COc1cccc(OC)c1C(=O)NC(C)c1ccccc1 (centres undefined)	.	.	.	-2%	-2.4	-3	0.77	.	.
O=C(CSc1nnc(-c2ccc(O)cc2)o1)Nc1ccc2c(c1)OCCO2	.	.	.	-7%	-0.3	-10	0.74	.	.
COc1cccc2c1C(=O)c1c(O)c3c(c(O)c1C2=O)CC(O)(C(=O)CO)CC3OC1CC(N(C)C)C(O)C(C)O1 (centres undefined)	-56	-63	20	32%	-47	.	.	i	?
O=C(OCC(=O)N1CCCC1=O)C1CCN(S(=O)(=O)c2c(Cl)cccc2Cl)CC1	3	0	-0.7	8%	1.0	2	0.71	i	0.7
COCC(=O)Nc1nnc(-c2cccs2)s1	.	.	.	17%	1.9	-1	0.68	.	.
CC1CC(C)CN(C(=O)CSC2=Nc3ccccc3C3=NC(Cc4c[nH]c5ccccc45)C(=O)N23)C1 (centres undefined)	.	.	.	15%	4.5	-4	0.72	.	.
Cc1ccc(C)c2[nH]c(=O)c(CCNC(=O)CC(C)C)cc12	18	17	-1.0	-4%	2.9	-24	0.74	i	-4.5
CCOc1ccc(NC(=O)CN(C)C(=O)c2ccc(NC3CC3)c([N+](=O)[O-])c2)cc1OCC	3	5	6.6	1%	0.4	-25	0.7	i	-9.1
Cc1cc2c(cc1S(=O)(=O)NCCc1ccc(Cl)cc1)OCC(=O)N2	-16	-34	-5.8	.	0.8	.	0.73	i	-0.4
COc1ccccc1C(=O)NCC(=O)NCCCN1CCOCC1	5	16	-3.5	-5%	2.9	-1	0.7	i	0.2
CC(NC(=O)COC(=O)Cc1ccsc1)c1ccccc1 (centres undefined)	.	.	.	-6%	-0.3	.	0.67	i	-5.2
CCOCCCNC(=O)N[C@H](C(=O)OC)C(C)CC (some centres undefined)	6	10	0.4	9%	-2.2	2	0.69	i	-3.4
CCNc1nc(N)nc(Oc2ccc(OCCOc3ccc(Cl)cc3Cl)nn2)n1	-16	-19	7.3	-3%	-1.5	-3	0.66	.	.
CC(=O)Nc1ccc(S(=O)(=O)NC2(C(F)(F)F)NC(=O)N(c3ccc(C)cc3)C2=O)cc1 (centres undefined)	22	15	4.6	4%	4.0	-18	0.68	i	-1.7
COc1ccccc1Oc1cc(-n2nc(C)cc2C)ncn1	.	.	.	.	0.3	-1	0.67	.	.
Cc1ccc(S(=O)(=O)N[C@H]2CC[C@H](CCNC(=O)C3CCOCC3)O[C@H]2CO)cc1	1	3	1.3	.	.	.	.	+	-4.4
C(=N\Nc1ncnc2sc3c(c12)CCC3)/c1cccs1	.	.	.	19%	5.9	53	.	.	.
O=C(CCn1cccn1)Nc1ccc2c(c1)OCCO2	10	16	0.1	.	1.1	-12	0.69	i	2.0
Cc1ccccc1NC(=O)/C(=C/c1cccs1)NC(=O)c1ccco1	4	4	1.1	.	-0.8	-8	0.66	i	0.9
CC(=O)N1CCN(C(=O)c2cccc(S(=O)(=O)N3CCN(c4ccccc4)CC3)c2)CC1	1	2	-1.8	.	3.9	.	0.65	i	-1.5
CCN(C(=O)COC(=O)c1ccc([N+](=O)[O-])o1)c1cccc2ccccc12	-19*	-4.3*	-3.3*	.	-3.3	-42	0.61	i	15
O=C(c1ccc([N+](=O)[O-])cc1)N1CCCC1	1	7	-0.3	.	4.8	-6	0.68	i	-14
CC=Cc1ccc2n(c1=O)C[C@@H]1[C@@H](CO)[C@H](C(=O)N3CCCCC3)[C@H]2N1C(=O)C1CCC1 (mixture of isomers)	0	4	-2.7	.	.	.	.	i	0.9

In the list so far, three have two or more sulfur atoms.
SMILES	Ecoli rRNA inh	Ecoli rRNA inh OD600	Ecoli rRNA inh RFP	Vif TR-FRET	HNF4A DNA FP	ALR H2O2 inh	Ecoli growth	FGF22 binding	MLL AF4-AF9 inh
O=C1N=c2ccccc2=C1c1sc(=S)n(NC(=O)c2ccccc2)c1O	3	2	3.5	8%	-0.4	-7	.	i	.
COCC(=O)Nc1nnc(-c2cccs2)s1	.	.	.	17%	1.9	-1	0.68	.	.
C(=N\Nc1ncnc2sc3c(c12)CCC3)/c1cccs1	.	.	.	19%	5.9	53	.	.	.

(more compounds)
SMILES	Ecoli rRNA inh	Ecoli rRNA inh OD600	Ecoli rRNA inh RFP	Vif TR-FRET	HNF4A DNA FP	ALR H2O2 inh	Ecoli growth	FGF22 binding	MLL AF4-AF9 inh
CCn1c(P(C)(=O)O)nc2cc(NC(=O)c3ccccc3Cl)ccc21	11	12	0.8	.	1.7	-21	0.69	i	0.6
COc1ccc(-c2nc3c(s2)CN(S(C)(=O)=O)CC3)cc1OC	9	9	1.9	-4%	-0.9	-7	0.7	i	-1.3
O=C(c1ccc2snnc2c1)N1CCSCC1	.	.	.	18%	-4.3	-4	0.68	.	.
C[C@H]1CN([C@@H](C)CO)C(=O)c2ccccc2-c2ccccc2CO[C@@H]1CN(C)S(=O)(=O)c1ccc([N+](=O)[O-])cc1	-2	2	0.7	.	.	.	.	i	5.5
COc1ccc(/C=C(\NC(=O)c2ccccc2)C(=O)OC[C@@H]2CCC[N+]3(C)CCCCC23)cc1OC (some centres undefined)	21	16	0.4	1%	1.1	.	0.68	i	-1.0
O=C(Nc1ccc2oc(=O)ccc2c1)c1ccc2ccccc2c1	10	9	-2.1	.	1.3	.	0.65	i	5.6
COc1ccc(C(C)(C)C)cc1S(=O)(=O)N1CCN(C)CC1	.	.	.	7%	-0.7	-2	0.66	.	.
O=C(C[C@@H]1CC[C@H]2[C@@H](COC[C@H](O)CN2CC2CCOCC2)O1)NCC1CCCCC1	2	7	2.0	.	.	.	.	i	-0.9
NS(=O)(=O)c1ccc(CCNC(=O)CN2CCN(S(=O)(=O)c3ccccc3F)CC2)cc1	7	4	1.6	.	6.8	1	0.69	i	-4.9
C=CC(C)Sc1nc2c(c(=O)n(C)c(=O)n2C)n1Cc1ccccc1Cl (centres undefined)	0	4	-2.2	-2%	-0.2	-5	0.71	i	-12
CNC[C@@H]1Oc2cc(C#Cc3ccncc3)ccc2S(=O)(=O)N([C@@H](C)CO)C[C@@H]1C	-1	6	3.3	.	.	.	.	i	-0.5
CCOC(=O)N1CCN(C(=O)CN(c2cccc(C)c2)S(=O)(=O)c2ccc(C)cc2)CC1	.	.	.	-7%&0%	-0.6	-26	0.69	.	.
CS(=O)(=O)Nc1ccc2c(c1)[C@H]1C[C@H](CC(=O)NCc3cccnc3)O[C@@H](CO)[C@H]1O2	4	12	-1.3	.	.	.	.	i	-2.3
CC(=O)c1ccc(-c2ccccc2OC(F)(F)F)o1	-2	5	-2.0	.	-0.8	-8	0.69	i	-1.1
